From PubChem
D2 ag: agonists of human D2 dopamine receptor (beta-arrestin); P14416; DiscoveRx PathHunter D2 beta-arrestin, luminescence, 90 min; 100% = 57 uM dopamine signal; activation, % (no concentration beside the values); 0.084% of 360,000 active; in the data active = activation above about 40%; inconclusive = about 15% to 40%; inactive = below about 15%; further: compound concentration not given in the record; the text of the record calls up to 30% inactive
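Agonist mode: compounds alone added to overnight-plated D2 PathHunter cells for 90 min at 37 C, with 57 uM final dopamine (EC100) defining full response. Beta-arrestin recruitment detected by chemiluminescent reagent, read after 1 h at ambient temperature.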
TRPML1 ag: activates the human TRPML1 channel; TRPML1-expressing cells, Ca2+ dye fluorescence, FDSS; host cell line not named in the record; reference of the full effect not given here; activation, % (concentration not given with the values); 0.12% of 410,000 active; AID 624414; in the data active = activation above about 50%; inconclusive = about 30% to 50%; inactive = below about 30%; further: 0% is about no effect; the text of the record puts the active cut at 80%
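Cells: TRPML1-DL, 1X Tet inducer, ~16 h at 37 degrees C/5% CO2. Dye: ABD Ca8 no-wash + quencher, 45-90 min RT. Read: 10 s baseline, compound add, 110 s agonist phase; 54-4 EC80 (4uM final), 110 s antagonist phase.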
D2 PAM: human D2 receptor positive allosteric modulation | DiscoveRx D2 beta-arrestin cells, luminescence, 90 min; 100% = 57 uM dopamine signal | P14416 | 0.23% of 360,000 active | AID 624464 | potentiation, % (test concentration not listed); active = potentiation of 50% or more; inconclusive = 30% to 50%; inactive = 30% or less;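 further: compound concentration not given in the record; tested on top of an EC20 dose of dopamine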
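PathHunter D2 cells, attached overnight at 37 deg C, received compound in DMSO plus dopamine at EC20 (50 nM final) for 90 min at 37 deg C. Beta-arrestin recruitment was read as luminescence after 1 h with detection reagent at ambient temperature.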
CtBP-E1A blk: inhibitors of CtBP/E1A interaction. 0.49% of 340,000 active. activity change, % (no concentration beside the values). AlphaScreen GST-E1A/His-CtBP binding, 1536-well; stronger effect = lower value; control for the full effect not named in the record; in the data active means activity change below about -65%; inconclusive means about -30% to -65%; inactive means above about -30%; further: on the % scale 0 is the no-effect control and ±100 the full control effect; compound concentration not given in the record
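Protein mix (5X: 125 nM each GST-E1A, His-CtBP) was incubated with pinned compound 2 h at 37 deg C in dark, in 50 mM Tris pH 8.0 buffer with 300 mM NaCl. Glutathione donor and nickel acceptor beads followed; AlphaScreen signal read after 1 h.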
PINK1 expr mod: changes PINK1 expression; PINK1 immunofluorescence, high-content cytometry, 24 h; Potency, µM (series often up to 76.6 µM), for the others: top-dose activation (PINK1 increase), actives largely listed as activators; 0.2% of 410,000 active; active = well fitted activation curve with a large enough effect; inconclusive = small, poorly fitted or top-dose-only effect; inactive = flat fitted curve, though single readings scatter; cell line not stated here;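 further: potency means the concentration at half of the fitted maximal effect; % of control where 0% means no effect; nearly all actives have a fitted effect of over 65% in size; a mitochondrial uncoupler was the plate control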
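Stable cell line treated 24 h with compounds at 5 concentrations (CCCP controls), then fixed and immunostained for PINK1 plus nuclear and cell stains; PINK1 immunofluorescence quantified by laser-scanning microplate cytometry.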
Six1-Eya2 inh: Six1/Eya2 interaction inhibition; AlphaScreen GST-Six1/His-Eya2 binding, biochemical; stronger effect = lower value; control for the full effect not named in the record; activity change, % (test concentration not listed); 0.56% of 360,000 active; AID 651725; in the data active = activity change below about -65%; inconclusive = about -30% to -65%; inactive = above about -30%; further: on the % scale 0 is the no-effect control and ±100 the full control effect; compound concentration not given in the record
Target sequence (O00167 whole entry, looked up): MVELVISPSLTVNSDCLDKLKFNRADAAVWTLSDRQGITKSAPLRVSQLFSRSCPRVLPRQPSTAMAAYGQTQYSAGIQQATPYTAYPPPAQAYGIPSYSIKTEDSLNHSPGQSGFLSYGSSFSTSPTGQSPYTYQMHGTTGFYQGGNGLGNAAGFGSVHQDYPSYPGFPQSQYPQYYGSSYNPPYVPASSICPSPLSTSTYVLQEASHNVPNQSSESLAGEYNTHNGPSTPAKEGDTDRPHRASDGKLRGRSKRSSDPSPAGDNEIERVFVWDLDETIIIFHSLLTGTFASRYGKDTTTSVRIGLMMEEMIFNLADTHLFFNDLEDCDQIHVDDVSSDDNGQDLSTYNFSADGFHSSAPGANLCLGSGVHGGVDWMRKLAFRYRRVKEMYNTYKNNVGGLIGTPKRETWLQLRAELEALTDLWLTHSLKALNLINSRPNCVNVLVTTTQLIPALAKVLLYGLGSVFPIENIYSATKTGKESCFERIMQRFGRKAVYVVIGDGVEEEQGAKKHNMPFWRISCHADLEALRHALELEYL
Target sequence (Q15475 whole entry, looked up): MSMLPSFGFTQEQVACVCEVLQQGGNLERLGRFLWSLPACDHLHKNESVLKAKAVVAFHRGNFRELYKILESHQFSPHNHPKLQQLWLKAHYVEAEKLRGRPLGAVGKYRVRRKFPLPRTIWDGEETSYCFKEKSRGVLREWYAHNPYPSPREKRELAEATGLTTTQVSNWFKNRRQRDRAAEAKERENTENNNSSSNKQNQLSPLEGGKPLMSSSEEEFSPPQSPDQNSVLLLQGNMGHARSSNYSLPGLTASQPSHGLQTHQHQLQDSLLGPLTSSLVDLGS
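AlphaScreen luminescence read after one hour at 37 °C in darkness. Pin-transferred compounds met GST-Six1 and His-Eya2 protein (5X stock 250 nM/500 nM) plus glutathione donor and Ni-chelate acceptor beads (5X, 50 ug/mL).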
* marks the source's active call; other numbers are inactive results; ? = inconclusive; . = no result given; [ ] = dose if it differs, or a comment. Compounds as they come, and some 1.3% of all compounds hit somewhere here.

SMILES	D2 ag	TRPML1 ag	D2 PAM	CtBP-E1A blk	PINK1 expr mod	Six1-Eya2 inh
CC(=O)Nc1ccc(CN(C)c2c(C)nc3ccc(C(=O)NC4CCN(Cc5ccccc5)CC4)cn23)cc1	-3.8	-0.6	-12.9	-5.7	-0.9%	14.5
COc1ccc(-c2csc(N)n2)cc1F	-5.5	0.0	-4.4	3.8	1.8%	-8.6
COc1ccc(/C(C)=N\NC(=O)C(c2ccncc2)N2CCOCC2)cc1 (stereo unspecified)	-1.6	1.3	0.0	6.1	0.8%	10.6
Cc1cc(CNC(=O)COc2ccccc2)c2ccccc2n1	0.4	1.6	1.2	7.3	0.6%	7.6
Cc1ccccc1C(=O)OCC(=O)N(C)c1c(N)n(Cc2ccccc2)c(=O)[nH]c1=O	-1.1	0.6	-66.9	-0.3	-2.0%	-1.9
O=C(CCCNS(=O)(=O)c1cccs1)N1CCN(c2ccc(F)cc2)CC1	-2.4	0.4	3.4	1.1	-2.1%	3.3
CCCS(=O)(=O)c1c(S(=O)(=O)CCC)c2c(N)cccn2c1C(=O)c1ccc(OC)cc1	-2.5	-0.4	-12.9	10.3	-0.8%	-6.5
Cc1nnc(SCC(=O)NCc2ccccc2Cl)[nH]c1=O	-2.2	-0.3	-4.0	4.0	1.0%	5.4
CNC(=O)C1CC(=O)N(CCCc2ccccc2)C(=Nc2ccccc2)S1 (stereo unspecified)	-0.4	0.1	-2.2	-7.9	.	0.8
Cc1ccc(NC(=O)N2CCCC2C(=O)NCc2cccs2)cc1 (stereo unspecified)	-2.0	-0.3	12.0	3.8	0.3%	-0.6
CCOC(=O)NC(=O)COC(=O)CNC(=O)c1ccc(OCC)c(OCC)c1	-1.4	0.9	-6.7	8.5	2.5%	-16.3
CC1CCC2(CC1)NC(=O)N(CC(=O)NCc1ccc(F)cc1)C2=O (stereo unspecified)	-4.8	-0.4	-1.9	.	1.6%	6.1
CCN(CC(=O)Nc1cc(Cl)ccc1C)C(=O)CSCc1c(C)noc1C	-0.4	-0.6	-10.1	-15.0	0.4%	-0.4
CCOC(=O)c1cc(-c2ccccc2)sc1NC(=O)CSc1nnc(N)s1	-1.0	1.2	-1.9	10.2	9.3%	-2.2
COc1cccc(CN(C)CC(=O)Nc2ccccc2C(=O)NC2CC2)c1	-1.4	-0.9	0.5	5.1	0.1%	4.1
O=C(c1cnc2ccccc2n1)N1CCN(c2ccc(C(F)(F)F)cn2)CC1	-1.7	-0.9	-3.1	-0.2	4.6%	-6.7
O=S(=O)(Nc1ccc(NS(=O)(=O)c2ccccc2)c(Cl)c1)c1ccccc1	1.5	2.3	-3.5	14.2	-2.5%	14.6
Cc1ccc(C)c(N2N=C(C(=O)OCc3nnc(-c4ccccc4)o3)CCC2=O)c1	-2.8	-0.3	-17.6	11.9	-0.3%	-5.9
Cc1ccn2c(NC3CCCCC3)c(-c3ccc(SC4CCCCC4)cc3)nc2c1	.	0.7	.	-0.9	?	12.8
COc1ccc(NC(=O)CN2CCCC(C)C2)c([N+](=O)[O-])c1 (stereo unspecified)	-4.8	2.5	3.3	-24.2	2.4%	-26.9

Looked up by structure from the list above:
SMILES	D2 ag	TRPML1 ag	D2 PAM	CtBP-E1A blk	PINK1 expr mod	Six1-Eya2 inh
CCOC(=O)c1cc(-c2ccccc2)sc1NC(=O)CSc1nnc(N)s1	-1.0	1.2	-1.9	10.2	9.3%	-2.2
CCN(CC(=O)Nc1cc(Cl)ccc1C)C(=O)CSCc1c(C)noc1C	-0.4	-0.6	-10.1	-15.0	0.4%	-0.4

The list continues:
SMILES	D2 ag	TRPML1 ag	D2 PAM	CtBP-E1A blk	PINK1 expr mod	Six1-Eya2 inh
COc1ccc(C(=O)NCC(=O)OCC(=O)Nc2cc(OC)ccc2OC)cc1	-3.2	1.0	-9.8	0.0	-1.8%	16.6
O=Cc1ccc(OCC(=O)Nc2ccccc2C(F)(F)F)cc1	0.1	-0.9	-5.3	-3.3	0.9%	1.0
Cn1c(NCc2ccccc2Cl)nc2ccccc21	-6.7	-0.6	-6.3	4.0	7.0%	-6.1
CCOC(=O)C(NC(C)=O)(Nc1ccc(S(=O)(=O)Nc2cc(C)on2)cc1)C(F)(F)F (stereo unspecified)	-2.1	-0.1	-3.4	3.9	-0.6%	0.0
COc1ccc(S(=O)(=O)Nc2c(C)n(C)n(-c3ccccc3)c2=O)cc1C(=O)O	8.7	-0.4	-2.0	6.0	-0.3%	9.4
O=C(CCN1C(=O)c2ccccc2C1=O)Nc1cccc(S(=O)(=O)N2CCCCC2)c1	-5.3	0.2	-7.1	-0.8	.	-6.6
COc1ccc(-c2cc(C(=O)N3CCN(S(=O)(=O)c4ccc(C)cc4)CC3)[nH]n2)cc1	-4.8	3.0	-5.9	0.0	0.2%	2.7
CCSc1nnc(-c2ccc(S(=O)(=O)N3CCOCC3)cc2)n1C	-3.3	-0.5	-2.2	-10.8	-1.2%	?
CC(=O)c1ccc(OCCCC(=O)N2CCN(S(=O)(=O)c3cc(C)ccc3C)CC2)cc1	-1.3	1.4	-8.7	-10.3	0.4%	-19.2
COc1cccc(Oc2nc(-c3ccccc3O)nc3ccccc23)c1	-3.3	.	5.1	-2.7	7.6%	5.7
COc1ccc2[nH]c3c(c2c1)CCN1C(=O)C(CC(=O)NCCN2CCOCC2)C[C@H](C(=O)N2CCOCC2)[C@@]31C (stereo partly specified)	-3.5	0.3	.	-1.2	0.3%	0.4
Nc1n[nH]c(N)c1N=Nc1ccccc1F	2.0	-1.2	1.9	-10.6	-2.2%	-14.4
O=C(O)c1cc([N+](=O)[O-])cc([N+](=O)[O-])c1N1CCN(c2cccc(C(F)(F)F)c2)CC1	0.5	1.7	7.8	.	-1.6%	-5.0
COc1cccc(N(CC(=O)NC2CCCC2)C(=O)Cn2nnc(-c3ccc(C)cc3)n2)c1	-1.4	2.5	-5.5	-3.7	-1.6%[38.3 µM]	-1.3
Cc1cc(C)c(C(=O)OCC(=O)NCc2cccs2)c(C)c1	0.4	1.7	-41.1	15.2	-0.3%	-3.9
O=C(Nc1ccc([N+](=O)[O-])cc1)N1CCCCCC1	-2.2	1.9	-4.8	7.2	1.3%	-0.1
Cc1ccc(C)c2sc(NC(=O)c3ccc(N4CCCCC4)c([N+](=O)[O-])c3)nc12	-3.3	0.0	-2.0	-19.4	26.0%[38.3 µM]	-5.2
Cc1cc(C)c2nc(SCC(=O)N3CC(=O)Nc4ccccc43)c(C#N)cc2c1	-0.6	8.3	-6.8	-14.5	7.0%	-16.8
Cn1c(C(=O)NN)cc2cc(Oc3ccccc3)ccc21	-3.2	-0.9	-18.0	.	8.0%	-0.6
O=C(Nc1ccc(-n2cc(Cl)cn2)cc1)c1ccncc1	0.4	-0.3	0.8	.	7.3%	-0.9
COc1ccc(/C=C\c2nc(=O)c3ccccc3o2)cc1	-9.7	-0.1	3.9	-68.7*	-0.8%	14.7
COc1ccc(CC(=O)Nc2ccc(C(=O)NCC(C)C)cc2)cc1	0.4	4.8	1.6	-1.7	0.5%	4.0
COc1ccc(C)cc1N(CC(=O)N1CCCCCC1)S(=O)(=O)c1ccccc1	-0.6	-0.3	-1.9	-8.9	-0.9%	5.2
Cc1cccc(C(C)C)c1NC(=O)COC(=O)c1cccc(S(=O)(=O)N2CCc3ccccc3C2)c1	-6.6	0.2	0.6	15.4	3.0%	3.8
COc1ccccc1CNC(=O)C(C)n1cccc1C(=O)c1ccccc1 (stereo unspecified)	-2.8	-0.4	-5.6	0.0	-0.6%	-1.6
CSc1ncccc1C(=O)N(C)CC(=O)Nc1cccc(F)c1	-0.6	0.3	-5.5	0.7	-0.1%	-2.4
COc1cc(C)ccc1OCCOCCOc1cccc2ccc(C)nc12	5.8	-0.9	-3.8	4.1	-0.5%	4.3
O=C(Cn1cc(S(=O)(=O)Cc2ccccc2)c2ccccc21)N1CCOCC1	0.8	-0.3	18.4	4.6	4.4%	2.2
CCN1C(=O)N[C@H](c2ccc(Br)cc2)C(C(=O)OC)=C1C	-1.4	0.0	-5.5	3.0	-1.1%	2.0
COc1ccc(NC(=O)CS(=O)c2ccccc2Cl)cc1 (stereo unspecified)	-4.7	2.3	-12.6	-1.3	1.0%	5.2
CN(C(=O)CSc1nc2sc3c(c2c(=O)n1C)CCC3)C1CCS(=O)(=O)C1 (stereo unspecified)	2.9	3.8	-2.2	2.2	-0.3%	-2.0
COc1ccc(N(C(=O)c2snc(C(N)=O)c2N)C(C(=O)NC2CCCC2)c2ccco2)cc1 (stereo unspecified)	3.3	0.1	-4.8	1.7	1.0%	-6.0
O=C(COC(=O)c1cnccn1)NC1CCCc2ccccc21 (stereo unspecified)	0.6	-0.2	-1.3	13.0	1.5%	1.9
CCOC(=O)/C(C(=Nc1ccccc1)Nc1ccccc1)=C(\C)O	-1.8	2.1	-12.1	.	-0.4%	8.3
CCc1nc2c(OCc3ccccc3OC)cccn2c1N(C)C(=O)C(C)C	-5.7	4.6	-4.5	8.0	4.9%	-7.2
N#Cc1c(NC(=O)COC(=O)c2nccnc2N)sc2c1CCCC2	-1.9	-0.2	5.4	-0.6	0.0%	-19.1
Cc1ccc2c(c1)CCCN2C(=O)c1ccoc1C	-6.8	0.1	-3.1	-3.4	-3.5%[38.3 µM]	-0.1
CCOC(=O)[C@]12CCC=C1N(Cc1ccco1)C(=O)[C@H](CC(=O)N1CCN(C(=O)C3CC3)CC1)C2	.	-0.9	.	-0.4	1.1%	2.2
CC(=O)c1c(C(C)=O)c(C)n(C(c2ccccc2)c2ccccc2)c1C	-6.9	1.3	-14.0	.	0.2%	-11.9
Cc1cc(C)cc(Oc2coc3c(CN(C)C)c(O)ccc3c2=O)c1	-1.3	-0.8	-10.2	3.1	0.2%	-17.3
COc1ccc(NCc2ccc3c(c2)OCO3)cc1Cl	0.2	1.2	7.8	-2.0	1.3%[38.3 µM]	-24.3
CCOC(=O)C1(Cc2cccc(F)c2)CCN(C(=O)c2ccoc2C)CC1	0.7	1.3	-4.4	6.0	-1.4%	-11.2
CC(Oc1ccc(Cl)cc1C(N)=O)C(=O)N1CCc2ccccc21 (stereo unspecified)	-1.6	-0.3	-13.2	2.4	-0.9%	4.1
CC(=O)c1cccc(Nc2cc(C)nc3ccc(C)cc23)c1	-0.8	0.6	-27.2	-14.2	2.7%	-14.6
Cc1ccc(S(=O)(=O)Nc2ccc(C(=O)NC3CC3)cc2)cc1	-1.9	0.0	-3.1	4.1	7.6%	0.2
CCCCOc1ccc(CONS(=O)(=O)c2ccc(NC(C)=O)cc2)cc1Cl	-6.4	2.2	25.9	-7.7	-2.4%	0.0
COc1cc(OC)cc(C(=O)NCC(=O)NCCN2C(=O)S/C(=C\c3ccc4c(c3)OCO4)C2=O)c1	-0.9	0.3	-4.2	-15.3	6.4%	-2.7
COCC1CCN(C(=O)c2cc(COc3ccc(F)cc3Cl)on2)C1 (stereo unspecified)	1.6	0.5	-11.4	2.4	1.2%	3.4
Clc1ccc(-c2ccc(C=Nc3ccc(N4CCOCC4)cc3)o2)c(Cl)c1	-3.9	5.6	1.8	-14.2	0.8%	0.7
Cc1ccc(C(=O)NCCNS(=O)(=O)c2ccccc2)cc1	0.1	-0.1	4.0	-7.5	0.5%	5.6
